# High-throughput results (PubChem BioAssay)
# Resorufin fluor: compound fluoresces in the resorufin spectral region | Compound fluorescence, resorufin region 547/598 nm, buffer; stronger effect = higher value | max dye-equivalent concentration, M | 59,000 tested, 0.04% active | AID 588; active = above 10 nM dye equivalent; inconclusive = 1 to 10 nM; inactive = 1 nM or less; a few of its hits are not listed in these tables; also: highest value over a series up to 38 µM
#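 Compounds in 100 mM Tris buffer, pH 8.0, incubated 15 min at room temperature, then read with 547 nm excitation and 598 nm emission filters. Fluorescence was converted to dye-equivalent concentration using an on-plate six-point resorufin standard curve.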
# A647 fluor: compound fluoresces in the A647 spectral region; max dye-equivalent concentration, M; Compound fluorescence, A647 channel (570/671 nm), Tris buffer; 59,000 tested, under 10 active; active means above 1 µM dye equivalent; inconclusive means 0.1 to 1 µM; inactive means 0.1 µM or less;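 also: values scaled relative to a standard on each plate; highest value over a series up to 38 µM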
#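 Buffer was dispensed, compounds and Alexa 647 standards were pin-transferred, and plates sat 15 min at room temperature. Intensity at 570/671 nm was then converted to dye-equivalent concentration using the plate's A647 standard curve.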
# TSHR ag: activates the human thyroid stimulating hormone receptor; HEK293-CNG-TSHR cells (CNG channel as cAMP sensor), membrane potential dye, cAMP; Potency, µM (highest dose often 57.1 µM), inactives show top-dose activation, actives largely listed as activators; 73,000 tested, 0.48% active; AID 926; active = well fitted activation curve of enough size with the parental cells flat; inconclusive = any curve in the parental cells; inactive = parental cells flat and receptor cells flat or falling; also: potency is read from the fitted curve at half-maximal effect; % of control where 0% means no effect; weak receptor curves with flat parental cells got no call and are not listed
# Target sequence (P16473 whole entry, looked up): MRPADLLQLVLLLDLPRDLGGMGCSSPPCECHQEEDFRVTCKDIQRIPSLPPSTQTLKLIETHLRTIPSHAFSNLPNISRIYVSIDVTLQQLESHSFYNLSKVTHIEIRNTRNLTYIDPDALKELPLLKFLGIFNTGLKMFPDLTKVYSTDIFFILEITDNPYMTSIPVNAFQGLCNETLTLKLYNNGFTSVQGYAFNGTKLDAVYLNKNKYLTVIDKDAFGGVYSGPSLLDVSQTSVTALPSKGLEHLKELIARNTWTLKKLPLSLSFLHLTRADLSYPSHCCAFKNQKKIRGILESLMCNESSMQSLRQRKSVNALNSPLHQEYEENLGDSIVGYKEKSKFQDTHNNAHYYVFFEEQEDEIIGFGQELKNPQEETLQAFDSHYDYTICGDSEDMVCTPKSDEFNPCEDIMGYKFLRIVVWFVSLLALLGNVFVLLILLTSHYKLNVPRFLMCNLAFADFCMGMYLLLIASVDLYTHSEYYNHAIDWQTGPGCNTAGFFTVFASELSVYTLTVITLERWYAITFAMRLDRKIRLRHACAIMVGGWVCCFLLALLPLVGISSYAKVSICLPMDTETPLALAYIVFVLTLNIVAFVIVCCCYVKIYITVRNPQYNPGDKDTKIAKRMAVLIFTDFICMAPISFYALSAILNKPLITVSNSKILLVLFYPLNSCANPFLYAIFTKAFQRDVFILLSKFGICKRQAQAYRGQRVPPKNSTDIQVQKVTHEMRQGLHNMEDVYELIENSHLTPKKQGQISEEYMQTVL
#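 cAMP rise detected as CNG-channel membrane depolarization by fluorescent dye (emission 590 nm), 30 min after compound, following 60 min dye loading containing 100 uM RO 20-1724 at room temperature. Cells: TSHR/CNG HEK 293, with parental CNG HEK 293 as control.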
# AID923: qHTS Assay for Allosteric/Competitive Inhibitors of Caspase-1: Spectroscopic Profiling in AFC Spectral Region. 75,000 tested, 1.1% active. Potency, µM (top dose mostly 57.5 µM), without a hit: at the top dose fluorescence increase, actives largely listed as activators. compound fluorescence, AFC spectral region (405/520 nm); almost no hit is shown here. AID 923, 2007; active = well fitted activation curve with a large enough effect; inconclusive = small, poorly fitted or top-dose-only effect;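 also: potency is read from the fitted curve at half-maximal effect; 0% is about no effect; scaled to a free AFC standard on each plate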
#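 Titrations up to 57 uM read every 20 sec for 3 min (405/520 nm) with 50 nM caspase 1 and 5 uM Ac-WEHD-AFC, pH 7.5 HEPES buffer. Fluorescence-vs-time intercept gave baseline, scaled against on-plate AFC standard.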
# A488 fluor: compound autofluorescence in A488 spectral region | max dye equivalency, M | AID 591 | 59,000 tested, 0.1% active | compound autofluorescence, A488 spectral region, dye equivalency; stronger effect = higher value; active = above 10 nM dye equivalent; inconclusive = 1 to 10 nM; inactive = 1 nM or less; about half of its hits are not listed in these tables;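 also: highest value over a series up to 38 µM; compound alone in buffer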
#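 Readout is A488 dye-equivalent concentration, calibrated by a per-plate six-point Alexa 488 series. Compounds in 100 mM Tris buffer pH 8.0 were incubated 15 min at room temperature. Plates were imaged using 480 nm excitation/540 nm emission filters.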
# * hit, by the source's call; i = inactive; ? = inconclusive; nt = no result given; [ ] = another dose, or the depositor's remark. These rows are one share of the data; count on the stated rates, not on these rows.
SMILES,Resorufin fluor,A647 fluor,TSHR ag,AID923,A488 fluor
COC(=O)c1ccc(C(NC(=O)OCc2ccccc2)/C(=C/[C@@H](C)C(=O)N(C)Cc2ccccc2)c2cccnc2)cc1 (some centres undefined),nt,nt,26%,0.4%,nt
COc1ccc(S(=O)(=O)N2CCc3ccccc32)cc1C(=O)OCc1c(C)noc1C,i,1e-09,6%,-0.4%,i
c1ccc(-n2nnnc2-n2nnc3ccccc32)cc1,i,2.3e-08,5%,-2.3%,i
Cc1noc(C)c1CSCC(=O)OCC(=O)N1CC(=O)Nc2ccccc21,i,5.7e-08,-10%,-0.6%,i
CC(C)Cn1cc(C(=O)NCc2cccs2)c2c3ccccc3n(C)c2c1=O,i,1e-09,?,-0.9%,i
Cc1ccc2c(c1)NC(=O)C(CC(=O)NCc1ccc(F)cc1)O2 (centres undefined),nt,nt,-6%,2.5%,nt
Cc1ccc(S(=O)(=O)Nc2ccccc2C=O)cc1,i,4e-08,-12%[11.4 µM],-1.8%[11.5 µM],i
O=C(CN1C(=O)c2ccccc2C1=O)Nc1ccc(-c2nc3ccccc3o2)cc1,i,9.5e-09,-20%,-1.3%,i
O=C(Nc1cccc(NC(=O)c2cccnc2)c1)c1cccnc1,i,4.3e-09,-4%,1.0%,i
CN(C)Cc1ccc(-c2cc3onc(-c4ccccc4)c3c(=O)n2C)cc1,i,1e-09,nt,0.0%[11.5 µM],i
Cc1cc(C)n(Cc2cccc(F)c2)c(=O)c1C#N,i,7.1e-09,-8%,-3.0%,i
O=C(CSC1=Nc2ccccc2C2=NC(CC(=O)NC3CCCCC3)C(=O)N12)NCc1ccco1 (centres undefined),i,2.2e-08,?,1.5%,i
CSc1nc2n(n1)C(c1cc(Br)ccc1F)C(C(=O)N(C)C)=C(C)N2 (centres undefined),i,2.4e-08,10%,-0.3%,i
O=C(NCCc1ccccc1)c1ccnc(/C=N/O)c1,i,1e-09,-6%,-0.5%,i
Cn1c(CCNC(=O)c2cccs2)nnc1SCC(=O)N1CCN(c2ccccc2)CC1,i,4.1e-09,3%,0.8%,i
COc1ccc(-c2nc3c(=O)n(C)c(=O)[nH]c3n2CCc2ccccc2)cc1,i,1.2e-09,-4%,3.2%,i
COc1cc(C(=O)OCCN2CCOCC2)cc(OC)c1OC,nt,nt,-4%,8.6%,nt
COc1ccc(N2C(=O)CCC(C(=O)Nc3ccccn3)C2c2ccc(OC)c(OC)c2)cc1 (centres undefined),i,3.6e-08,5%[11.4 µM],0.3%,i
CCNC(=O)NC(=O)COC(=O)CNC(=O)COc1ccccc1,i,3.5e-08,-6%,0.5%,i
CCOC(=O)c1cc(NC(=O)CSCCO)ccc1Cl,i,2e-08,-11%,-1.7%,i
CCCOc1ccc(N2C(=O)CC(N3CCN(c4ccccc4OC)CC3)C2=O)cc1 (centres undefined),nt,nt,-5%,-1.8%,nt
Cc1ccc(NC(=O)c2c(-c3c(F)cccc3Cl)noc2C)cc1F,nt,nt,-5%[11.4 µM],-2.6%,nt
O=C(c1ccc2c(c1)OCO2)N1CCN(c2ccccc2)CC1,i,3e-08,?,-0.6%,i
CC(C)CNS(=O)(=O)c1ccc(OCC(=O)Nc2ccc3c(c2)OCO3)c(Cl)c1,i,3.9e-09,-11%,-0.4%,i
COc1ccc(NC(=O)CC2Sc3ncnn3C2=O)cc1 (centres undefined),nt,nt,-3%,0.9%,nt
Cc1ccc2oc(=O)n(Cc3ccccc3OC(C)C)c2c1,i,1e-09,?,1.5%,i
O=C(O)CC(CC(=O)O)n1cccc1,i,5.6e-09,3%[11.4 µM],-2.1%[11.5 µM],i
COc1ccccc1NC(=O)c1cc(C(=O)O)ccc1C(=O)O,i,1e-09,1%,0.0%,i
COc1ccc(Cl)cc1NS(=O)(=O)c1ccc(S(=O)(=O)N2CCCC2)cc1,i,2.2e-08,-13%,-0.8%,i
Cc1onc(-c2ccccc2Cl)c1C(=O)NC1CCS(=O)(=O)C1 (centres undefined),nt,nt,-17%,-1.5%,nt
NC(=O)CSC1=Nc2ccccc2C2=NC(CC(=O)NCc3cccs3)C(=O)N12 (centres undefined),i,1.7e-08,6%,0.2%,i
CCOC(=O)C1CCN(Cc2nc3ccc(Cl)cc3n2CCO)CC1,i,1e-09,-4%,0.0%,i
O=C(c1ccc2c(c1)OCCO2)C1CCN(C(=O)c2ccc(F)c(F)c2)CC1,i,4e-09,8%,0.2%,i
Cc1cc(N2CCN(S(=O)(=O)Cc3ccccc3)CC2)n2ncnc2n1,i,1e-09,-2%,2.0%,i
COC(=O)c1ccc(Sc2ccc(C)cc2)c(N)c1,i,5.3e-09,8%,-0.6%,i
Cn1cccc1Cc1nnc(SCC(=O)Nc2nc3ccccc3s2)n1CCc1ccccc1,i,1e-09,20%,1.4%,i
Cc1ccc(S(=O)(=O)c2c(N)n(/N=C/c3ccco3)c3nc4ccccc4nc23)cc1,i,1.1e-08,23%,0.8%,i
COc1ccccc1-n1nnnc1SCC(=O)Nc1cc(C)on1,i,1.6e-08,2%,-2.1%,i
N#CC1=C(N)SC(N)=C(C#N)C1C1CC=CCC1 (centres undefined),nt,nt,8%,2.8%,nt
Clc1cccc(Cl)c1Cn1cnc(=NCc2ccco2)c2[nH]cnc21,i,4.4e-08,18%,-0.1%,i
COc1ccc(NC(=O)CSc2c(C)nn(-c3nnc(C)c(=O)[nH]3)c2C)cc1,i,1.1e-08,3%,-1.7%,i
COc1ccc(Cl)cc1NC(=O)CN1CCC(n2nnc3ccccc32)CC1,i,5.3e-09,1%,-0.2%,i
CCN(c1ccccc1)S(=O)(=O)c1ccc(F)cc1C,i,1.7e-08,?,1.3%,i
CCN(CC)C(=O)c1cccc(-c2ccc(OC)cc2)c1,i,4.6e-08,nt,0.1%,i
CCOc1ccc(C(=O)C(c2ccccc2)N2CCOCC2)cc1 (centres undefined),i,1e-09,?,0.0%,i
O=C(NC1CCS(=O)(=O)C1)c1cccc(S(=O)(=O)N2CCOCC2)c1 (centres undefined),i,1.3e-08,0%,4.3%,i
CCCC[C@@H]1C[C@H]1C(NC(=O)c1ccc(C(F)(F)F)cc1)c1ccc(C(=O)OC)cc1 (some centres undefined),nt,nt,?,1.8%,nt
CC(C)=C(C#N)c1nc2ccccc2s1,i,7.1e-09,16%,-1.2%,i
Cc1nc2nc(-c3ccco3)nn2c(C)c1Cl,i,4.9e-09,-2%,0.2%,i
C=CCNc1nc(NCc2ccccc2)c(C#N)c2c1CN(C)CC2,i,1e-09,nt,nt,i
CCOc1ccccc1-c1nc(-c2cc3ccccc3nc2OC)no1,i,1e-09,?,13%,i
CC1CCCCN1c1nnc(NC(=O)Cn2c(=O)oc3ccccc32)s1 (centres undefined),nt,nt,?,-4.2%,nt
Cc1cnc(C(=O)Nc2cccc(-c3nnc4n3CCCCC4)c2)cn1,i,4e-08,2%,-2.0%,i
CCCc1cc(C(=O)Nc2sc(C)c(C)c2C(=O)OCC)no1,nt,nt,-6%,-0.6%,nt
O=C(NCCN1CCOCC1)c1cc(S(=O)(=O)NCCCN2CCCC2=O)ccc1Cl,i,2.5e-08,-1%,-0.3%,i
CCn1cc(C(=O)Nc2cccc(C(=O)OC)c2)c(=O)c2ccc(C)nc21,i,2.3e-08,0%,1.4%,i
COc1ccc(NC(=O)CN2CC(c3ccccc3)CC2=O)cc1OC (centres undefined),nt,nt,-2%,2.8%,nt
OC1CCCCC1,nt,nt,-5%,2.1%,nt
Cc1ccccc1C1CC(c2ccccc2)Nc2ncnn21 (centres undefined),nt,nt,?,0.9%,nt
C=CCn1c(Sc2nncn2C)nc2c1c(=O)[nH]c(=O)n2C,i,1e-09,-3%,-0.3%,i

# The list goes on, overlapping the part above by 2 compounds.
SMILES,Resorufin fluor,A647 fluor,TSHR ag,AID923,A488 fluor
Cc1ccccc1C1CC(c2ccccc2)Nc2ncnn21 (centres undefined),nt,nt,?,0.9%,nt
C=CCn1c(Sc2nncn2C)nc2c1c(=O)[nH]c(=O)n2C,i,1e-09,-3%,-0.3%,i
COc1ccccc1N1CCN(CCCNc2c(C)c(=O)n(C)c(=O)n2C)CC1,i,4.6e-09,10%,-2.9%,i
S=C(NCC1CCCO1)n1nnc2ccccc21 (centres undefined),i,8.6e-09,-5%,-2.4%,i
CCOc1ccc(-c2nn3c(-c4ccccc4)nnc3s2)cc1,i,1e-09,?,0.6%,i
Cc1sc(NC(=O)c2ccco2)nc1-c1ccc2c(c1)CC(C)N2C(=O)C1CC1 (centres undefined),i,2.1e-09,8%,0.8%,i
O=C(NC1CCCCCC1)C1CCCN1S(=O)(=O)c1cccc2cccnc12 (centres undefined),nt,nt,?,0.0%,nt
COc1cc(CCC(=O)OCc2nnc(-c3ccccc3)o2)cc(OC)c1OC,i,2.8e-08,9%,-0.7%,i
O=c1cccccc1NCc1ccccc1,nt,nt,0%,8.1%,nt
Cc1cccc(N2CC34C=CC(O3)C(C(=O)O)C4C2=O)c1 (centres undefined),i,2.9e-08,1%,-0.6%,i
CCN1C(=O)[C@H]2[C@H]3[C@H](O)[C@H](O)C/C(=N/O[C@@H](C)c4cc(-c5c(C)cc(C)cc5C)no4)[C@@H]3CC[C@@H]2C1=O,nt,nt,4%[11.4 µM],-1.4%[11.5 µM],nt
O=C(COc1ccc(S(=O)(=O)NC2CCCCC2)cc1)Nc1ccc2c(c1)OCCO2,nt,nt,7%,0.0%,nt
COC(=O)CN1C(=O)C2(C(C#N)=C(N)Oc3c2c(C)nn3-c2ccccc2)c2ccccc21 (centres undefined),i,6.3e-09,5%[11.4 µM],0.9%,i
COc1cc2c(cc1O)CCC1C2CC[C@@]2(C)C1CC[C@@H]2O (some centres undefined),nt,nt,-1%,-2.8%,nt
CN(Cc1ccccc1)c1nc2c(c(=O)n(C)c(=O)n2C)n1CCSc1ncccn1,nt,nt,11%,-3.3%,nt
O=C(O)Cn1nc(C(F)(F)F)c2c1CCC2,i,1e-09,-3%,-1.6%,i
CCOc1ccc(-c2cnc(SCC(N)=O)nc2N)cc1,i,8.5e-09,2%,0.3%,i

# Among those listed so far, these have a CF3 group:
SMILES,Resorufin fluor,A647 fluor,TSHR ag,AID923,A488 fluor
CCCC[C@@H]1C[C@H]1C(NC(=O)c1ccc(C(F)(F)F)cc1)c1ccc(C(=O)OC)cc1 (some centres undefined),nt,nt,?,1.8%,nt
O=C(O)Cn1nc(C(F)(F)F)c2c1CCC2,i,1e-09,-3%,-1.6%,i

# (list continues)
SMILES,Resorufin fluor,A647 fluor,TSHR ag,AID923,A488 fluor
CCOCCn1cnc2sc(C(=O)NCC(=O)OCC)c(C)c2c1=O,i,1e-09,-2%[11.4 µM],0.3%,i
CC(C)CO/N=C1/C[C@@H](O)[C@@H](O)[C@@H]2[C@@H]3C(=O)N(Cc4ccc5c(c4)OCO5)C(=O)[C@H]3CC[C@H]12,nt,nt,0%[11.4 µM],0.2%[11.5 µM],nt
Nn1c(SCC(=O)Nc2ccc(F)cc2F)nnc1C1CCCCC1,i,1e-09,-3%,1.9%,i
CCc1nnc(NS(=O)(=O)c2ccc(NS(=O)(=O)c3ccccc3)cc2)s1,i,5.7e-09,4%,-0.2%,i
C/C(=N\O)C(C)(C)NC(=O)Nc1ccc(Cl)cc1,i,1e-09,?,0.7%,i
Cc1nn(C)c(C)c1S(=O)(=O)N1CCCC(C(=O)N2CCN(c3ccc(Cl)cc3)CC2)C1 (centres undefined),i,6.3e-09,nt,-4.4%,i
c1ccc(-c2oc3ncnc(NCCN4CCOCC4)c3c2-c2ccccc2)cc1,i,1e-09,nt,0.6%,i
COc1ccccc1-n1nnnc1SCC(=O)NC1CCCC1,i,1e-09,10%,-1.7%,i
N#Cc1cccc(NC(=O)CCC2CCCC2)c1,i,1e-09,10%,0.5%,i
COc1cc(NC(=O)N2CCOCC2)cc(OC)c1,i,2.1e-08,4%,0.0%,i
CC(CCc1ccccc1)NC(=O)CSc1nc(N)cc(N)n1 (centres undefined),i,1e-09,-1%,1.6%,i
